Tg IFNy HTS – T. gondii growth inhibition with IFN-gamma, primary screen, cell-based | Toxoplasma gondii growth in IFN-gamma-treated host cells; hits give low values; reference of the scale not given here | activity change, negative = inhibition, %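 (about 20 µM by stock and volumes)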 | actives 3.8% (n = 69,000) | AID 1259416, 2018;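 active = below -70%; inconclusive = fit judged invalid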;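 also: host cells are HeLa cells infected with Toxoplasma gondii; parasite growth read as luciferase light; one replicate is shown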
An asterisk follows results filed as active; i = inactive; ? = inconclusive; & = joins results of further samples. Some of the compounds tested. The share of hits here may be higher or lower than overall.

SMILES | Tg IFNy HTS
C[C@@H]1CN([C@@H](C)CO)C(=O)Cc2cc(NS(=O)(=O)c3ccc(F)cc3)ccc2O[C@H]1CN(C)Cc1ccncc1 | 7
COc1ccc(C(=O)OCc2cc3cccc(C)c3[nH]c2=O)cc1 | 21
Cc1nc2nnc3ccc(C(=O)CCN4CCOCC4)cc3c2n1C(C)C | 47
COc1cccc(S(=O)(=O)N2C[C@H](O)COC[C@@H]3O[C@@H](CC(=O)N4CCN(c5ccccc5)CC4)CC[C@H]32)c1 | -28
Cc1ccc(C(=O)N2CCC(N3CCCC3)CC2C(=O)O)cn1 (stereo not given) | -2
OC(CN1CCC(O)(c2ccc(Cl)cc2)CC1)c1ccccc1 (stereo not given) | -54
FC(F)(F)Oc1ccc(-n2ccc(-c3ccccc3)nc2=S)cc1 | 93
Cn1nccc1C(=O)N1CC[C@@H](c2ccc3ccccc3c2)[C@H](O)C1 | 5
NC(=S)c1cccc(-n2cccc2)c1 | 12
O=S(=O)(NCc1ccccc1)N1CC2C[C@@H]3CC1C[C@H](C2)C3 | -15
Cc1cnccc1CN(C)Cc1ccnn1-c1ccccc1 | 9
COCC(=O)Nc1ccc2c(c1)C(=O)N(C)[C@H]1CC[C@H](CC(=O)NCCCN(C)C)O[C@H]1CO2 | 30
O=S(=O)(c1ccc(Cl)cc1)N1CCCC1c1nc(-c2ccccc2)no1 (stereo not given) | -28
Cc1cccn2c(CC(=O)NCc3ccc4c(c3)CC(C)O4)cnc12 (stereo not given) | -61
Cc1nn(-c2ccccc2)cc1C1C=C(c2ccc(Cl)cc2)N=C2SCC(=O)N21 (stereo not given) | 58
O=C(c1cccn2c(-c3ccc(F)cc3)nnc12)N1CCC(O)(c2ccc(Cl)cc2)CC1 | -34
Cc1nc(-c2ccccc2)sc1CCNC(=O)C(=O)Nc1ccc2c(c1)OCO2 | -93*
Cn1cccc1C(=O)N1CCC2(CC(Nc3ncccn3)CO2)C1 (stereo not given) | 0
COc1ccc(CCc2nc(CC(=O)Nc3cc(C)ccc3C)no2)cc1 | 14
COc1cccc(CNC(=O)CSc2nc3cccnc3s2)c1OC | -16
CN1C(=O)c2cc(NC(=O)NCc3ccccc3)ccc2OC[C@@H]2O[C@H](CC(=O)NCC3CCCCC3)CC[C@H]21 | -52
O=S(=O)(c1cccc(Cl)c1)N1CCC2(CC1)Nc1ccc(Cl)cc1-n1cccc12 | 14
O=c1c(O)c(-c2ccccc2)oc2cc(O)ccc12 | 39
OC(Cn1cnc(-c2ccccc2)c1-c1ccccc1)Cn1c2ccccc2c2ccccc21 (stereo not given) | -86*
O=C(Cn1c(=O)cc(-c2nc(C3CC3)no2)c2ccccc21)NCc1ccccc1Cl | -17
CC(C)C(=O)N1C[C@H]2CN(C(=O)C3CC3)C[C@@H]2c2ccccc21 | 3
COc1ccccc1-c1nc(CN(c2ccccc2OC)S(=O)(=O)c2ccc(C)cc2)c(C)o1 | -5
Cc1nc2ccccc2nc1CN1CCCC(C(=O)c2ccc3c(c2)OCO3)C1 (stereo not given) | 10
COCCC1COC2(CCN(C(=O)C3CCC3)CC2)C1 (stereo not given) | 4
O=C(c1ccncc1)N1C[C@@H]2[C@H](c3ccccc31)[C@@H](CO)N2C(=O)CN1CCOCC1 | 5
CC(C)N1c2ccc(F)cc2[C@@H]2CN(C(=O)c3ccco3)CC[C@H]21 | -18
Cc1cc(N(C)Cc2cc(C(C)(C)C)n[nH]2)nc(-c2cccnc2)n1 | -47
C=CCN1CCN(C(=O)[C@H]2CCCO2)Cc2ccc(C)nc21 | 17
CN(CC1COCCO1)c1nccc(N2CCC(O)CC2)n1 (stereo not given) | 6
NC(=O)c1cncc(Oc2cc(F)c(CN3CCCC3)c(F)c2)n1 | -7
C=CC(=O)Nc1ccc(Cl)cc1 | 13

Quoted from above, 2 compounds:
SMILES | Tg IFNy HTS
NC(=O)c1cncc(Oc2cc(F)c(CN3CCCC3)c(F)c2)n1 | -7
C=CC(=O)Nc1ccc(Cl)cc1 | 13

Continued.
SMILES | Tg IFNy HTS
O=C(O)c1cccnc1Oc1ccc2c(c1)OCO2 | 63
Cc1ccc(-c2nc(CN3CCN(C(=O)Nc4ccc(C)c(F)c4)CC3)c(C)o2)cc1 | -40
C/C=C/c1ccc(C2[C@@H]3CN(Cc4cccc(OC)c4)C[C@H]2N3)cc1 (stereo not given in full) | -57
NC1=NC(c2ccc(Cl)cc2)C(C(=O)c2ccccc2)N1 (stereo not given) | -2
NC1(C(=O)O)CCN(Cc2cccn2-c2ncccn2)C1 (stereo not given) | 6
CCc1ccc(Nc2nc(C(=O)NCCc3ccco3)nc3ccccc23)cc1 | -36
COc1cccc(CC2(CO)CCN(c3ncnc4sccc34)CC2)c1 | -61
COCCO[C@@H]1C[C@@H]2CN(C(=O)c3cscn3)CCN2C1 | 4
CN1CCN(Cc2nc3c(c(=O)n(C)c(=O)n3C)n2CCCO)CC1 | 9
Cc1onc(-c2c(Cl)cccc2Cl)c1C(=O)NC(=S)Nc1ccccc1 | -73*
COc1ccc(C)cc1NC(=O)Nc1ccc(-c2nc(-c3cccc(Br)c3)co2)cc1 | -50
COc1ccc(-c2cc3cc(OC)c(OC)cc3c(Cc3cccc4ccccc34)n2)cc1 | 6
O=S(=O)(CCOc1ccccc1)N1CCOCC1 | 26
Cc1nc(-c2ccc(C(=O)NCCN3C(=O)CSC3=O)cc2)cs1 | 37
C[C@@H]1CN([C@@H](C)CO)C(=O)Cc2cc(NC(=O)c3ccncc3)ccc2O[C@@H]1CN(C)C(=O)Nc1ccc(F)cc1 | 4
O=C(CCSc1ccccc1)Nc1nncs1 | 0
CCc1cn[nH]c1C1CCCN(C(=O)c2c(-c3ccccc3)ccnc2C)C1 (stereo not given) | 7
Fc1ccc(-c2ccc(C3[C@@H]4CN(Cc5ccccc5)C[C@H]3N4)cc2)cc1 (stereo not given in full) | -33&-22
CN(C)C(=O)c1ccc(-c2ccc([C@H]3[C@@H](C#N)N[C@@H]3CO)cc2)cc1 | 23
CC1=CC(C)(C)N2C(=O)C3(NC(=O)c4ccccc4N3)c3cccc1c32 (stereo not given) | 380
COc1ccc(CCC(=O)Nc2ccn(Cc3ccccc3)n2)cc1 | 11
c1csc(CN2CCOCC3(CCC(Cn4cccn4)O3)C2)c1 (stereo not given) | 0
CC(C)OCCCNC(=O)Cn1c(-c2cccs2)cc2cccnc21 | 94
CC(C)(O)C#Cc1ccc(C(=O)NCc2cnn(-c3ccc(F)cc3)c2)o1 | 46
COCCN(Cc1cccs1)C(=O)C1=NN(C)C(=O)CC1 | -1
Fc1ccc(-c2nnc(-c3nc(NCc4ccco4)c4ccccc4n3)o2)cc1 | -86*
Cc1[nH]ncc1C(=O)N1CCC(C2CCCCN2C(=O)Cc2ccccc2F)CC1 (stereo not given) | 5
OC[C@H]1O[C@@H](Oc2cc(O)cc(/C=C/c3ccc(O)cc3)c2)[C@H](O)[C@@H](O)[C@@H]1O | -16
CCCc1cc(C(=O)N2CCCn3nc(C(=O)OC)cc3C2)n(C)n1 | -1
COC(=O)c1c(NCc2ccccc2)c2cccc(Cl)c2[nH]c1=O | -55
COc1cccc(-n2c(=O)c(C(=O)NCc3cccc(C)c3)c(O)c3cccnc32)c1 | -41
NC(=O)c1cnc2n1CCN(C(=O)c1cccc3c1NCCC3)C2 | 130
Cc1ccc(S(=O)(=O)Nc2ccc(O)c(Sc3nc(C)cc(C)n3)c2)cc1 | -6
COc1ccc2c(c1)NC1(CCN(C(=O)c3ccccc3Cl)CC1)c1cccn1-2 | -14
CO[C@@H]1CN(C)C(=O)c2ccc(NS(=O)(=O)c3cccc(Cl)c3)cc2OC[C@@H](C)N(C(=O)Cc2cccnc2)C[C@H]1C | -39
O=C(Nc1cc(F)ccc1F)N1[C@@H]2CNC[C@H]1C2c1ccc(/C=C/c2ccccc2)cc1 (stereo not given in full) | -14&64
C[C@@H]1CCCCO[C@H](CN(C)C(=O)Nc2cccc3ccccc23)[C@@H](C)CN([C@H](C)CO)C(=O)c2cc(NC(=O)CCC(F)(F)F)ccc2O1 | i
CCOC(=O)C1(CCOC)CCCNC1 (stereo not given) | 8
COc1cccc(CNC(=O)C[C@H]2CC[C@@H]3[C@@H](COc4ccc(NS(=O)(=O)c5ccccc5F)cc4C(=O)N3C)O2)c1 | -28
COCCN1CCC2(CCCN(C(=O)c3ccoc3)C2)CC1 | 1
Cc1noc(C)c1S(=O)(=O)N1CCCC(c2nc(CNC(=O)C(C)C)cs2)C1 (stereo not given) | 4
Cc1ccc(NC(=O)C(=O)NCCc2csc(-c3ccc(F)cc3)n2)cc1Cl | 25
COCC(=O)NCC1Cn2nnc(-c3ccnn3C)c2CO1 (stereo not given) | 1
Cc1cc(C(F)(F)F)n2nc(C(=O)N3CCc4c(nc(C)[nH]c4=O)C3)cc2n1 | 2
O=C(Cc1cccs1)N1CCCC2(C1)Nc1cccnc1NC2=NC1CCCC1 (stereo not given) | -38
Cc1ccsc1[C@@H]1CCN(Cc2cn[nH]c2-c2ccc(F)cc2)C[C@H]1O | -3
Cc1ccc(NC(=O)CS(=O)CC(=O)N2CCN(c3ccccc3)CC2)cc1 (stereo not given) | -41
COc1cccc(-n2c(=O)c(C(=O)Nc3ccc(F)cc3)c(O)c3cccnc32)c1 | 99
CCOC(=O)c1ccc(NC(=O)N2CCC3(CC2)Nc2ccccc2-n2cccc23)cc1 | 130
CCCn1c(=O)c(-c2nc(-c3ccc(SC)cc3)no2)c(O)c2ccccc21 | -51
COCCn1cc(-c2nc(C(=O)NCCc3cccnc3)c3ccccn23)nc1C | -8
COc1ccc(-c2nnc(-c3nc(Nc4ccccc4OC)c4ccccc4n3)o2)cc1 | -57
O=C(Oc1ccc(Cl)cc1Cl)c1cc2ccc3ccccc3c2s1 | -31
CCN1CCC2(CC1)OC(=O)C(C)=C2C(=O)NCCCN1CC(C)CC(C)C1 (stereo not given) | 132
CN1CCN(c2cc(C(F)(F)F)ccn2)CC1C(=O)O (stereo not given) | -4
Cc1ccc2cc(CN(c3ccc(C)c(C)c3)S(C)(=O)=O)c(=O)[nH]c2c1 | -51
CCS(=O)(=O)N1CCOC2(CCCN(c3ccccn3)C2)C1 (stereo not given) | 5
CCCCN(CCCC)CCNC(=O)C1=C(C)C(=O)OC12CCN(C(C)=O)CC2 | 75
Cc1noc(C)c1NC(=O)N1C[C@@H](O)COC[C@H]2O[C@H](CC(=O)N[C@@H]3CCN(Cc4ccccc4)C3)CC[C@@H]21 | -3
Cc1ccc(S(=O)(=O)N(C)C[C@@H]2Oc3cc(C#CC4CCCC4)ccc3S(=O)(=O)N([C@@H](C)CO)C[C@H]2C)cc1 | -109*

Arranged by formula weight (largest number first): 16 of the compounds above
SMILES | Tg IFNy HTS
Cc1ccc(S(=O)(=O)N(C)C[C@@H]2Oc3cc(C#CC4CCCC4)ccc3S(=O)(=O)N([C@@H](C)CO)C[C@H]2C)cc1 | -109*
Cc1noc(C)c1NC(=O)N1C[C@@H](O)COC[C@H]2O[C@H](CC(=O)N[C@@H]3CCN(Cc4ccccc4)C3)CC[C@@H]21 | -3
CCOC(=O)c1ccc(NC(=O)N2CCC3(CC2)Nc2ccccc2-n2cccc23)cc1 | 130
COc1ccc(-c2nnc(-c3nc(Nc4ccccc4OC)c4ccccc4n3)o2)cc1 | -57
Cc1ccc(NC(=O)C(=O)NCCc2csc(-c3ccc(F)cc3)n2)cc1Cl | 25
O=C(Cc1cccs1)N1CCCC2(C1)Nc1cccnc1NC2=NC1CCCC1 (stereo not given) | -38
CCCCN(CCCC)CCNC(=O)C1=C(C)C(=O)OC12CCN(C(C)=O)CC2 | 75
COc1cccc(-n2c(=O)c(C(=O)Nc3ccc(F)cc3)c(O)c3cccnc32)c1 | 99
COCCn1cc(-c2nc(C(=O)NCCc3cccnc3)c3ccccn23)nc1C | -8
Cc1ccc(NC(=O)CS(=O)CC(=O)N2CCN(c3ccccc3)CC2)cc1 (stereo not given) | -41
CCCn1c(=O)c(-c2nc(-c3ccc(SC)cc3)no2)c(O)c2ccccc21 | -51
Cc1cc(C(F)(F)F)n2nc(C(=O)N3CCc4c(nc(C)[nH]c4=O)C3)cc2n1 | 2
Cc1ccsc1[C@@H]1CCN(Cc2cn[nH]c2-c2ccc(F)cc2)C[C@H]1O | -3
Cc1ccc2cc(CN(c3ccc(C)c(C)c3)S(C)(=O)=O)c(=O)[nH]c2c1 | -51
CCS(=O)(=O)N1CCOC2(CCCN(c3ccccn3)C2)C1 (stereo not given) | 5
CN1CCN(c2cc(C(F)(F)F)ccn2)CC1C(=O)O (stereo not given) | -4

Going on with the list.
SMILES | Tg IFNy HTS
Cc1cc(C)n(-c2nnc(-c3ccccc3)c(-c3ccccc3)c2-c2ccccc2)n1 | -22
CN1c2ccc(-c3ccc(C#N)cc3)cc2[C@@H]2[C@@H](CCN2S(=O)(=O)c2ccc(F)cc2)[C@@H]1CO | -57
Cc1oc(-c2cccc(Cl)c2)nc1CNS(=O)(=O)c1ccccc1 | ?
CC(C)CCC(=O)N1C[C@@H]2c3nc(N4CCOCC4)ncc3CS(=O)(=O)[C@H]2C1 | -35
Cc1nc(-c2ccc(F)cc2)sc1CCNS(=O)(=O)c1ccc2c(c1)CCCC2 | 34
CCCc1ncc(-c2ccncc2)c(C2CCCCN2C(=O)c2c(OC)cccc2OC)n1 (stereo not given) | -7
CCOC(=O)c1ccc(NC(=O)COc2nc(C)nc3ccccc23)cc1 | -7
COCC1c2c(cnn2CC2CCOCC2)CCN1C(=O)c1ccco1 (stereo not given) | -48
CNC(=O)c1ccc(N2C(=S)N(c3ccc(C#N)c(C(F)(F)F)c3)C(=O)C2(C)C)cc1F | 6
COc1ccccc1NC(=O)CN1CCC2(CC1)N=C(c1ccc(C)c(C)c1)C(=O)N2 | 80
OC(c1ccccn1)C1CCN(Cc2cccc3[nH]ccc23)CC1 (stereo not given) | -36
C/C(=N\NC(=S)N1CCC1)c1ccccn1 | -80*
CSc1ccc(CNC(=O)c2cc3cc(S(=O)(=O)N(C)C)ccc3n2Cc2ccncc2)cc1 | -28
O=C1N(Cc2ccccn2)C(=O)C2(CCN(C3Cc4ccccc4C3)CC2)N1Cc1ccccc1 | 12

From PubChem
